Bioassay records deposited in PubChem BioAssay by Broad Institute.
Calb FLC: affects C. albicans growth with fluconazole | growth inhibition, % (no concentration beside the values) | C. albicans CaCi-2 (fluconazole-resistant clinical isolate) + fluconazole, Alamar Blue growth, 48 h | hit rate 0.57% among 300,000;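 active = most replicates above 75%; inconclusive = exactly half above 75%; inactive = most below 75%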;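 also: all wells also contain fluconazole at 8 µg/ml as a sub-toxic cotreatment; 0% = median of DMSO wells and 100% = median of geldanamycin control wells; wells of about 8 µL received 7.5 nL stock; the first replicate is given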
RanGTP-Imp inh: inhibitors of RanGTP-importin-beta interaction, primary screen, biochemical, FRET, CFP-Ran, YFP-importin-beta, homogeneous; inhibition, % (concentration not given with the values); hit rate 1.1% among 300,000; cell-free CFP-Ran/YFP-importin-beta FRET ratio;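 active = most replicates above 15%; inconclusive = exactly half above 15%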;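 also: 0% = DMSO wells and 100% = Ran loaded with GDP instead of GTP; wells of about 40 µL received 100 nL stock; the first replicate is given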
Ecoli rRNA inh: selective bacterial rRNA inhibition in E. coli; GFP signal change (wild-type ribosome), % (no concentration beside the values); hit rate 1.6% among 350,000; AID 720706; E. coli WT GFP vs humanized-ribosome RFP mutants, fluorescence, 24 h; active compounds read low; DMSO median 0, no signal -100;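 active = significant combined selectivity score with lowered wild-type GFP, culture density cut under 30%, mutant RFP and density less affected; inactive = any of these conditions unmet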; also: one replicate is shown; some compounds called inactive have numbers as strong as hits
Beta apoptosis: beta cell apoptosis inhibition | INS-1E cytokine-induced death, ATP luminescence, 48 h; percent of positive-control rescue, neutral wells zero | hit rate 0.8% among 300,000 | protection from apoptosis, % (concentration not given with the values);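 active = all replicates at 75% or more, or half of them and the mean; inconclusive = half reach 75% but not the mean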;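 also: 0% = cytokine-treated negative control wells and 100% = positive control rescue; higher means more ATP so stronger rescue from cytokine killing; wells of about 40 µL received 100 nL stock; the first replicate is given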
T cruzi inh: blocks replication of Trypanosoma cruzi; hit rate 1.4% among 300,000; inhibition, % (no concentration beside the values); T. cruzi beta-gal in NIH3T3, luminescence, 90 h;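 active = mean inhibition across valid replicates above about 55%, limit read from the data; inconclusive = mean below that limit but half or more replicates reach it; inactive = mean below it, under half of replicates reach it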;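 also: signal also drops with host cell toxicity which is not excluded here; 0% = plate median of DMSO wells and 100% = zero luminescence signal; higher percent means less beta-gal luminescence so fewer parasites; stock transfer was 50 nL into about 50 µL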
FGF22 binding: binders of recombinant human FGF22 by thermal shift | Q9HCT0 | SYPRO orange fluorescence; percent of sucrose octasulfate shift, DMSO zero | calls only at 9.99 µM | hit rate 1.5% among 340,000;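 active = melting point raised past a set limit in the mean and every replicate; inconclusive = no clear call; three in four hits are not shown here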
Target sequence (Q9HCT0 whole entry, looked up): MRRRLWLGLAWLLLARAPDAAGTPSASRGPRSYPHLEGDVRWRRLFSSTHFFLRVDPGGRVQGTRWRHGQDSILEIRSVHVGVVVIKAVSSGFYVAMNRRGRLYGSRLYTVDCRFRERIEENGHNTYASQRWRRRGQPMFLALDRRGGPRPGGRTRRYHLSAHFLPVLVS
ALR inh: blocks human ALR sulfhydryl oxidase activity; P55789; purified ALR, DTT oxidation, H2O2 HRP-luminol luminescence; inhibition, % (test concentration not listed); hit rate 3.8% among 290,000;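 active = mean and each replicate at 75% or more; inconclusive = only one of the two met; inactive = neither met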;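 also: stock transfer was 7.5 nL into about 7.5 µL; 0% = neutral wells and 100% = wells with inactivated enzyme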
Target sequence (P55789 whole entry, looked up): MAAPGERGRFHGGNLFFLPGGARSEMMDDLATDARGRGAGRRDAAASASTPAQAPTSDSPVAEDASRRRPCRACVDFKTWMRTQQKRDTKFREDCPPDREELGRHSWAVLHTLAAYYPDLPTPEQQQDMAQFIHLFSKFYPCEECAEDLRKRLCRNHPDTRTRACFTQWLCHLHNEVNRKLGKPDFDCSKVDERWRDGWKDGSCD
MLL AF4-AF9 inh: inhibitors of human MLL-AF4/AF9 interaction. P42568. AlphaScreen, biotin-AF4 peptide binding to FLAG-AF9. inhibition, % at 10 µM. hit rate 0.47% among 350,000. AID 651704;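 active = every replicate reaching a set inhibition limit, whatever the replicate mean, cut at about 25% in these data; inconclusive = mean inhibition reaches that limit but some replicates miss it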;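 also: 0% = plate neutral control median and 100% = total signal loss; the record names both 10 and 1 µM as test concentration; the first replicate is given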
Target sequence (P42568 whole entry, looked up): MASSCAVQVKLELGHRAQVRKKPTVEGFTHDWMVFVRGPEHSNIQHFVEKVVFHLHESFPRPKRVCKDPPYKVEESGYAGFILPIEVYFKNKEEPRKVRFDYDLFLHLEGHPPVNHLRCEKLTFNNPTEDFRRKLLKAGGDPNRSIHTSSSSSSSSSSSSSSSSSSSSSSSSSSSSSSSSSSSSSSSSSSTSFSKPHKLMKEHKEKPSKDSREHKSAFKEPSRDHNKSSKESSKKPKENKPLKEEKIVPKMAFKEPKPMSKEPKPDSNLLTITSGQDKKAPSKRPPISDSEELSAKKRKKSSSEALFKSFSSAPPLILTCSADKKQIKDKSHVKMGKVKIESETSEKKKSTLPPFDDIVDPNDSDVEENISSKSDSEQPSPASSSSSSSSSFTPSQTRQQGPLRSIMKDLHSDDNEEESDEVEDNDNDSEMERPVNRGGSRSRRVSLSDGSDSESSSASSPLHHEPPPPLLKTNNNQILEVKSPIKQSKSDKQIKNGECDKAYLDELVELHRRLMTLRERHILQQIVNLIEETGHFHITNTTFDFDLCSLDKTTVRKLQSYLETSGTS
Ecoli rRNA inh OD600: also measured in Ecoli rRNA inh; calls as there; OD600 change, %; measured here: OD600 growth;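 optical density of the mix in the first replicate; 0 = DMSO median and -100 = no signal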
Ecoli rRNA inh RFP: further read-out of Ecoli rRNA inh, marked with its call; RFP signal change, %; measured here: RFP humanized mutant strains;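 first replicate; 0 = DMSO median and -100 = no signal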
* = called active by the depositor; i = inactive; ? = inconclusive; . = not tested or not shown. Only part of the results is shown (hit frequency here may not be typical).

SMILES	Calb FLC	RanGTP-Imp inh	Ecoli rRNA inh	Ecoli rRNA inh OD600	Ecoli rRNA inh RFP	Beta apoptosis	T cruzi inh	FGF22 binding	ALR inh	MLL AF4-AF9 inh
NS(=O)(=O)c1ccc(CCNC(=O)CSc2cccs2)cc1	-3	0.1	6	8	-1.9	3	-19	i	-16	1.1
O=C(COc1ccccc1)N1CCN(S(=O)(=O)c2ccc(Cl)cc2)CC1	-12	0.9	.	.	.	1	13	.	2	.
COc1ccc2[nH]c(=O)c(CN(CCO)S(=O)(=O)c3c(C)ccc4nsnc34)cc2c1	-6	-1.7	.	.	.	-4	-12	.	-7	.
CCOC(=O)Cn1nc(C)n(-c2c(C)cccc2C)c1=O	-14	-3.0	3	9	-1.1	-6	-9	i	20	-0.8
N#Cc1nc(COc2ccccc2F)oc1NCc1ccc(F)cc1	4	0.5	-28	-31	-2.5	-5	18	i	.	-40
CS(=O)(=O)Nc1ccc(C2=NN(C(=O)CCCC(=O)O)C(c3cccs3)C2)cc1 (centres undefined)	4	-4.7	2	4	0.7	-3	-11	i	-47	-2.6
COc1ccc(N2CCN(C(=O)c3ccc4c(=O)n(CC5CCCO5)c(=O)[nH]c4c3)CC2)cc1 (centres undefined)	?	-1.8	.	.	.	-1	-4	.	74	.
O=C(Nc1ccc(C(=O)O)cc1)/C(=C\c1ccc2c(c1)OCO2)NC(=O)c1ccco1	-14	4.6	11	11	-4.7	-1	-3	i	.	0.2
COc1ccccc1N1CCN(S(=O)(=O)c2ccc(NC(C)=O)cc2)CC1	0	-5.1	5	-5	-0.1	0	-3	i	35	-1.5
CCN1C(=O)N(CC)C2C1N(CO)C(=O)N2CO (centres undefined)	?	-4.5	8	16	0.6	-3	7	.	-2	-1.2
Cc1ccc(SC(CC(=O)c2ccc(C(C)(C)C)cc2)C(=O)O)cc1 (centres undefined)	7	1.1	-31	-48	-4.1	.	22	i	98*	-4.4
O=C(COC(=O)Cc1ccc(Cl)cc1)NCCc1ccccc1	.	.	-24*	-11*	-1.1*	-2	.	i	-13	0.2
Nc1c(Cl)cc(-c2cn(CCC(=O)O)c(-c3ccncc3)n2)cc1Cl	.	.	3	-2	-1.8	-5	.	i	-35	2.4
C=CCN1C(=O)C(CC(=O)NCC)SC1=Nc1ccccc1OC (centres undefined)	2	-1.9	23	9	5.9	2	1	i	-3	-0.7
CCCC(O)(c1ccc(OC)cc1)C(CN(C)C)c1ccccc1 (centres undefined)	-9	3.3	.	.	.	1	-20	.	99*	.
Cc1cc(NC(=O)c2ccc3nccnc3c2)ccc1Br	.	.	4	8	1.2	5	.	i	11	3.6
COC(=O)c1nn(-c2ccc(F)cc2)ccc1=O	5	6.6	.	.	.	.	.	i	-1	-0.3
CCOC(=O)c1cn(CC)c2cc(F)c(F)cc2c1=O	-1	-0.3	21	18	0.3	-1	1	.	-1	-3.0
O=C(/C=C/c1ccccc1Cl)N1CCCN(C(=O)/C=C/c2ccccc2Cl)CC1	-7	-3.1	.	.	.	-12	1	.	-5	.
CN(CC(=O)OCC(N)=O)S(=O)(=O)c1ccc(Cl)cc1	-5	5.5	18	22	4.8	.	-10	i	-8	-0.5
CCC(=O)N1CCN(c2ccccc2NC(=S)NC(=O)c2ccco2)CC1	11	2.3	-16	-14	0.1	-1	12	i	-1	3.5
COc1ccc(Cl)cc1-n1c(C)cc(C=O)c1C	10	0.2	.	.	.	-3	-9	.	-2	.
C=CCOc1cccc(C2c3c(oc4ccccc4c3=O)C(=O)N2c2ccccn2)c1 (centres undefined)	-4	?	5	8	-2.3	0	7	i	-8	0.2
O=C(CN(Cc1ccccc1Cl)C(=O)CNS(=O)(=O)c1ccc(F)cc1)NCC1CCCO1 (centres undefined)	7	-3.1	9	13	-2.8	1	-2	i	2	-0.1
O=C(COC(=O)c1cccc(S(=O)(=O)N2CCCCC2)c1)NC1CCCCC1	.	.	9	11	0.7	-3	.	i	-1	0.8
N#Cc1c(NC(=O)c2ccccc2)sc2c1CCCCC2	-2	0.1	.	.	.	13	12	.	-25	.
CC/C(C)=N\N=C\c1c(O)n(CC)c2cc(C3=NNC(=O)CC3)ccc12	13	-1.6	.	.	.	6	-14	.	64	.
COCCn1c(-c2ccc(OC)cc2)cnc1SCC(=O)Nc1ccc(OC)cc1OC	-4	-5.2	-6	-10	5.5	5	1	i	.	9.6
CCN(CC)S(=O)(=O)c1ccc(N=N/C(C(C)=O)=C(/C)O)cc1	3	0.8	.	.	.	5	.	.	5	.
Cc1c(C(=O)N2CCCCC2)c(S(=O)(=O)N2CCN(c3ccccc3F)CC2)c(C)n1C	-12	0.1	-2	-3	5.1	.	-5	i	-5	3.3
O=C1C=C(O)C(n2cncn2)C(c2ccc3c(c2)OCO3)C1 (centres undefined)	-3	-0.1	31	38	4.0	-3	-15	i	-6	-0.2
COC(=O)[C@H](CCSC)NC(=O)N1CCC(C)CC1	-3	5.8	.	.	.	1	-7	.	3	.
CN1C2CCC1CC(NC(=O)c1cc(Cl)cc3[nH]cnc13)C2 (centres undefined)	1	0.1	11	17	0.7	-8	-4	i	.	0.8
COc1ccc(-n2ccnc(SCC(=O)NCc3ccc(C)cc3)c2=O)cc1Cl	8	-0.8	7	5	1.8	-18	-11	i	98*	-1.2
Cc1cccc(NC(=O)c2cccnc2Oc2ccccc2)c1C(=O)O	4	6.3	5	11	-0.1	0	10	i	-9	-4.7
CC1=CN2C(=NC(=O)CC2(C)C(=O)N(CC(=O)NC2CCCC2)c2cc(C)cc(C)c2)C=C1 (centres undefined)	3	-1.4	11	1	-2.0	-1	-9	i	-5	0.3
CC1=C(C(=O)OC2CCCCCCC2)C(c2cccc(O)c2)NC(=O)N1 (centres undefined)	7	-3.9	-33*	-19*	-5.5*	-5	-9	i	19	16
O=C(Cn1[nH]c(=O)c2ccccc2c1=O)NCc1cccnc1	-12	-0.6	.	.	.	3	-4	.	-10	.
COc1cccc2c1oc1c(SCc3nc4ccccc4[nH]3)nc(C)nc12	.	.	4	-1	-1.0	-1	.	i	-8	-2.7
CC(C)N=C(Nc1ccc(Cl)cc1)c1cccnc1	-2	-1.4	.	.	.	3	-15	.	-8	.
CCOc1ccc(S(=O)(=O)n2cnc(C)c2)cc1	-7	4.3	0	-5	1.2	-5	0	i	.	-4.8
COC(=O)/C=C1\S/C(=N/N=C/c2ccco2)NC1=O	24	-4.4	8	8	1.0	0	-12	i	3	-0.8
CC(=O)N(Cc1c(C)nn(-c2ccccc2)c1Cl)c1ccc(Cl)cc1	4	1.0	.	.	.	.	19	.	-25	.
COc1ccc(C2=NOC(C)(c3nnc(-c4ccncc4)o3)C2)cc1 (centres undefined)	0	-2.2	-18	-44	27	-2	-12	i	1	10
COCCNc1c2c(nc3c(-c4ccccc4)c(C)nn13)CCCC2	7	2.4	.	.	.	-1	27	.	42	.
CCOC(=O)C1CCN(c2c(-c3ccccc3)c3cc(Cl)ccc3[nH]c2=O)CC1	-4	4.7	.	.	.	-5	28	.	23	.
CCc1nc(NCCN2CCOCC2)c(C#N)c2c1CCCC2	-14	-2.3	.	.	.	-5	32	.	-1	.
Brc1ccc2c(c1)OCCOCCOCCOCCOCCO2	-17	-1.3	3	10	-4.4	7	-11	i	-4	2.1
Fc1ccc(Nc2nc(N/N=C/c3ccco3)nc(N3CCCCC3)n2)cc1	53	-3.6	-55	-79	-32	8	60*	i	7	14
O=S(=O)(NCc1ccccc1)c1ccc(-n2cccn2)cc1	-4	-0.9	2	-14	-4.4	-2	-10	i	-13	-8.5
Cc1ccc(C(=O)NCC(=O)NCc2cc(=O)n(C)c(=O)n2C)cc1C	.	8.5	9	18	-0.5	-4	1	i	1	-5.8
CN(CCC(=O)Nc1ccc(Cl)cc1)Cc1ccccc1	4	-1.0	6	4	-3.0	19	0	i	-2	-1.3
O=C(O)C1CCCCC1C(=O)Nc1ccc(S(=O)(=O)N2CCCCC2)cc1 (centres undefined)	17	2.6	-1	-3	-3.7	-1	-26	i	-2	1.9
Cc1ccc([N+](=O)[O-])cc1Nc1nc(N2CCCC2)nc(N2CCCC2)n1	-1	3.8	10	11	-0.7	4	1	i	.	2.4
CCn1c(Cc2ccccc2)nnc1SCC(=O)Nc1cc(C)on1	25	-3.5	-3	0	-2.6	0	1	i	-9	-5.4
O=C(Cc1c(Cl)cccc1Cl)Nc1ccc(S(=O)(=O)Nc2ncccn2)cc1	5	?	2	-3	1.2	.	-4	i	-4	-0.6
N#Cc1cccc(NCC(=O)Nc2cccc(S(=O)(=O)N3CCCCC3)c2)c1	.	.	-4	-41	4.1	0	.	i	-3	-2.5
CN1CCN(C(=O)C2CCN(S(=O)(=O)c3ccccc3[N+](=O)[O-])CC2)CC1	.	.	10	15	-0.1	-6	.	i	.	-7.5
COc1ccccc1CNC(=O)COC(=O)Cc1cccc(F)c1	.	.	-1	-1	-2.5	-2	.	i	-22	-1.6
CCc1ccc(OCC(=O)NNC(=O)Cc2ccc(S(=O)(=O)N3CCOCC3)s2)cc1	4	2.0	0	-1	2.2	-10	-4	i	-1	0.6

Further compounds follow.
SMILES	Calb FLC	RanGTP-Imp inh	Ecoli rRNA inh	Ecoli rRNA inh OD600	Ecoli rRNA inh RFP	Beta apoptosis	T cruzi inh	FGF22 binding	ALR inh	MLL AF4-AF9 inh
Cc1ccc(Oc2ncnc(N)c2[N+](=O)[O-])cc1	2	0.0	39	-4	1.0	-5	-12	i	-2	-1.5
Cc1cc(NS(=O)(=O)c2ccc(NC(=O)CCc3ccccc3)cc2)no1	8	4.0	.	.	.	5	-12	.	-11	.
O=C(CNC(=O)c1ccc2c(c1)OCCO2)N/N=C/c1ccc([N+](=O)[O-])cc1	-1	1.1	4	18	-1.6	-2	-1	i	.	-0.4
Nc1ccc(Oc2cc(N)cc(Oc3ccccc3)c2)cc1	?	0.8	-21*	2.3*	1.7*	0	-10	i	100*	5.4
CCOc1ccc(NC(=O)CCC(=O)OC)cc1	-1	-2.1	.	.	.	-1	0	.	3	.
CC(OC(=O)c1ccc(Cl)c(S(=O)(=O)N2CCOCC2)c1)C(=O)Nc1ccc(S(N)(=O)=O)cc1 (centres undefined)	2	1.8	1	-3	2.4	-6	-1	i	.	1.3
Cn1nnnc1SCCNCC#Cc1ccccc1	-19	-8.7	.	.	.	3	-2	.	-5	.
COc1ccccc1CNC(=O)c1ccc(OC(F)F)c(OC)c1	8	1.9	4	6	5.4	-4	-11	i	.	-12
O=C(O)c1ccc(-n2nc(-c3ccccc3)c3ccccc3c2=O)cc1	6	2.0	2	-10	-1.6	-9	-4	i	0	-6.8
Cc1onc(-c2ccccc2Cl)c1C(=O)N1CCc2ccccc21	15	0.8	3	4	0.9	-4	23	i	-2	-30
COc1cc(-c2nnc(SCC(=O)c3ccccc3)o2)cc(OC)c1OC	27	-0.4	-25*	-12*	1.9*	2	9	i	-7	-64
CCc1ccc(S(=O)(=O)NCc2ccc(N3CCN(C)CC3)cc2)cc1	-18	-1.3	23	-2	1.8	-5	51	i	-11	0.1
